ALR inh: inhibitors of human sulfhydryl oxidase ALR; purified ALR, DTT oxidation, H2O2 HRP-luminol luminescence; inhibition, % (no concentration beside the values); 290,000 tested, 3.8% active;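 active means mean and each replicate at 75% or more; inconclusive means only one of the two met; inactive means neither met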;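 further: stock transfer was 7.5 nL into about 7.5 µL; 0% = neutral wells and 100% = wells with inactivated enzyme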
Target sequence (P55789 whole entry, looked up): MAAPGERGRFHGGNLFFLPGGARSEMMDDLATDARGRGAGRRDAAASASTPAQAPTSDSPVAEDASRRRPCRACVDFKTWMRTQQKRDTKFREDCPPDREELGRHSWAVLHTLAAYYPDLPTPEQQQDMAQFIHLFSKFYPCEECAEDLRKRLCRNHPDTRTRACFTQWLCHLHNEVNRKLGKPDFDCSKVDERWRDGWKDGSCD
RanGTP-Impb inh: inhibitors of RanGTP-importin-beta interaction, primary screen, biochemical, FRET, CFP-Ran, YFP-importin-beta, homogeneous. AID 2216. cell-free CFP-Ran/YFP-importin-beta FRET ratio. inhibition, % (no concentration beside the values). 300,000 tested, 1.1% active;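 active means most replicates above 15%; inconclusive means exactly half above 15%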;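 further: 0% = DMSO wells and 100% = Ran loaded with GDP instead of GTP; wells of about 40 µL received 100 nL stock; the first replicate is given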
T cruzi repl: blocks replication of Trypanosoma cruzi | T. cruzi beta-gal in NIH3T3, luminescence, 90 h | inhibition, % (test concentration not listed) | 300,000 tested, 1.4% active | AID 1885;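 active means mean inhibition across valid replicates above about 55%, limit read from the data; inconclusive means mean below that limit but half or more replicates reach it; inactive means mean below it, under half of replicates reach it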;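 further: signal also drops with host cell toxicity which is not excluded here; 0% = plate median of DMSO wells and 100% = zero luminescence signal; higher percent means less beta-gal luminescence so fewer parasites; stock transfer was 50 nL into about 50 µL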
Calb FLC: C. albicans growth modulation with fluconazole; 300,000 tested, 0.57% active; AID 1979; growth inhibition, % (test concentration not listed); C. albicans CaCi-2 (fluconazole-resistant clinical isolate) + fluconazole, Alamar Blue growth, 48 h;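 active means most replicates above 75%; inconclusive means exactly half above 75%; inactive means most below 75%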;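 further: all wells also contain fluconazole at 8 µg/ml as a sub-toxic cotreatment; 0% = median of DMSO wells and 100% = median of geldanamycin control wells; wells of about 8 µL received 7.5 nL stock; the first replicate is given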
AF4-AF9 inh: blocks AF4 peptide binding to human AF9. P42568. AlphaScreen, biotin-AF4 peptide binding to FLAG-AF9. inhibition, % at 10 µM. 350,000 tested, 0.47% active. AID 651704;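 active means every replicate reaching a set inhibition limit, whatever the replicate mean, cut at about 25% in these data; inconclusive means mean inhibition reaches that limit but some replicates miss it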;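 further: 0% = plate neutral control median and 100% = total signal loss; the record names both 10 and 1 µM as test concentration; the first replicate is given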
Target sequence (P42568 whole entry, looked up): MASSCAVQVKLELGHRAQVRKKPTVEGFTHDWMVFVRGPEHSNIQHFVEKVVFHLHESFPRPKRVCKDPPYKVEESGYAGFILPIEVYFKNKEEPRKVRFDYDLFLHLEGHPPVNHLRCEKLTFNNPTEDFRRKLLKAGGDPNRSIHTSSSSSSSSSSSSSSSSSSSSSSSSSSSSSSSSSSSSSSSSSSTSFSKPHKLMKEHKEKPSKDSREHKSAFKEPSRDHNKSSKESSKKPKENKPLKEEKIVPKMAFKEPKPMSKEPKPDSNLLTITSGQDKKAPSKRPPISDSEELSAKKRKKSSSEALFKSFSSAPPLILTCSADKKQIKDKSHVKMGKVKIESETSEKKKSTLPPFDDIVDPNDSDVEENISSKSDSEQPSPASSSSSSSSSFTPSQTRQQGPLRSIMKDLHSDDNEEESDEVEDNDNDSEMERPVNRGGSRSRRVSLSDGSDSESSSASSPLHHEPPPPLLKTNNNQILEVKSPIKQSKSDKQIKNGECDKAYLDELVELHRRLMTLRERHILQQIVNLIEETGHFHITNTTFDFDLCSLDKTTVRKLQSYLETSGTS
Beta cell apopt: beta cell apoptosis inhibition; INS-1E cytokine-induced death, ATP luminescence, 48 h; percent of positive-control rescue, neutral wells zero; 300,000 tested, 0.8% active; protection from apoptosis, % (no concentration beside the values);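 active means all replicates at 75% or more, or half of them and the mean; inconclusive means half reach 75% but not the mean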;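 further: 0% = cytokine-treated negative control wells and 100% = positive control rescue; higher means more ATP so stronger rescue from cytokine killing; wells of about 40 µL received 100 nL stock; the first replicate is given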
FGF22 binding: shifts melting point of recombinant human FGF22. Q9HCT0. recombinant FGF22 thermal shift, SYPRO orange fluorescence; percent of sucrose octasulfate shift, DMSO zero. calls only at 9.99 µM. 340,000 tested, 1.5% active;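 active means melting point raised past a set limit in the mean and every replicate; inconclusive means no clear call; three in four hits are not shown here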
Target sequence (Q9HCT0 whole entry, looked up): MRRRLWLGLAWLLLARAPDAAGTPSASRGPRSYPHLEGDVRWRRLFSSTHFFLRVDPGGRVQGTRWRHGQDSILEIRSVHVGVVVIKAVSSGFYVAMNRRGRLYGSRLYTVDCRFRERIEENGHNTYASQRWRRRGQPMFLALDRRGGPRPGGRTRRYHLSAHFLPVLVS
Ecoli rRNA inh: selective bacterial rRNA inhibition in E. coli. E. coli WT GFP vs humanized-ribosome RFP mutants, fluorescence, 24 h; hits give low values; DMSO median 0, no signal -100. GFP signal change (wild-type ribosome), % (concentration not given with the values). 350,000 tested, 1.6% active. AID 720706;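 active means significant combined selectivity score with lowered wild-type GFP, culture density cut under 30%, mutant RFP and density less affected; inactive means any of these conditions unmet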; further: one replicate is shown; some compounds called inactive have numbers as strong as hits
Ecoli rRNA inh OD600: also measured in Ecoli rRNA inh; calls as there; OD600 change, %; measured here: OD600 growth;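 optical density of the mix in the first replicate; 0 = DMSO median and -100 = no signal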
Ecoli rRNA inh RFP: further read-out of Ecoli rRNA inh, marked with its call; RFP signal change, %; measured here: RFP humanized mutant strains;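 first replicate; 0 = DMSO median and -100 = no signal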
* marks the source's active call; other numbers are inactive results; i = inactive; ? = inconclusive; . = not tested or not shown.

SMILES	ALR inh	RanGTP-Impb inh	T cruzi repl	Calb FLC	AF4-AF9 inh	Beta cell apopt	FGF22 binding	Ecoli rRNA inh	Ecoli rRNA inh OD600	Ecoli rRNA inh RFP
O=C1NC(=S)N(c2ccc(Br)cc2)C(=O)/C1=C/N1CCN(C(=O)c2ccco2)CC1	6	-2.2	-10	-1	-3.2	-2	i	-13	1	5.4
CC(N)C(=O)c1ccco1 (configuration not stated)	3	-2.0	-4	-3	.	-3	.	.	.	.
CCc1ccccc1NC(=O)CNC1CCCCC1	-1	3.1	-21	3	0.0	-1	i	22	18	0.6
CN(C)C(Cc1ccccc1)C(=O)c1c[nH]c2ccccc12 (configuration not stated)	.	11	-16	2	1.3	1	i	-2	4	-1.1
O=C(c1ccccc1F)c1cn(CC(=O)N2CCCC2)c2ccccc12	20	1.0	5	-5	.	3	.	.	.	.
O=c1[nH]c(O)c(C=Nc2cc(F)cc(F)c2)c(=O)[nH]1	-1	3.8	0	-1	-2.2	-2	i	12	9	0.2
Cc1nn(Cc2c(Cl)cccc2Cl)c(Cl)c1C(=O)O	-7	1.7	-1	-5	0.1	-1	i	10	3	-1.8
CN1c2ccc([N+](=O)[O-])cc2CC2(C(=O)NC(=O)NC2=O)C1c1ccccc1 (configuration not stated)	-37	-1.6	0	-4	4.1	0	i	.	.	.
COC(=O)C1=C(c2ccc(OC)c(OC)c2)C[C@@H]2CC[C@H]1N2C(=O)NCc1ccco1	-16	.	.	.	-1.3	-10	i	10	4	4.7
CSCc1nnc2n1-c1ccc(Cl)cc1C(c1ccccc1)=NC2	3	-0.2	-5	3	7.0	5	i	-9	-37	-6.7
CCCCC(=O)N/N=C/c1c(O)n(CCc2ccccc2)c(=O)[nH]c1=O	-13	2.4	-20	15	-1.0	6	i	10	-3	2.6
CCCCn1c(=O)c(C(=O)Nc2ccccc2S(N)(=O)=O)c(O)c2ccccc21	5	-2.1	-3	-5	.	3	.	.	.	.
COc1ccccc1N1CCN(Cc2ccc(SC)cc2)CC1	12	-0.9	12	-8	11	-1	.	-11	-7	2.8
CCN(CC)C(=O)c1ccc2c(c1)C1C(Cl)C(Sc3ccccc3[N+](=O)[O-])CC1C(C(=O)O)N2 (configuration not stated)	97*	0.9	-9	1	.	19	.	.	.	.
COc1ccc(-c2nc(CS(=O)CC(=O)N3CCC4(CC3)OCCO4)c(C)o2)cc1 (configuration not stated)	99*	2.7	-1	-5	.	-1	.	.	.	.
COc1ccc(N2C(=O)NC(=O)/C(=C/c3ccc4c(c3)Cc3ccccc3-4)C2=O)cc1	-20	-1.7	-21	2	.	-3	.	.	.	.
O=C(C1CCN(S(=O)(=O)c2ccccc2)CC1)N1CCC2(CC1)OCCO2	-3	-3.4	-8	2	.	-1	.	.	.	.
COc1ccc(CN2C(=O)NC(=O)/C(=C\c3ccco3)C2=O)cc1	2	-3.4	6	-6	-3.1	-6	i	18	6	13
O=C(Cn1cc(C(=O)c2ccccc2F)c2ccccc21)NC1CC1	10	3.2	-13	-1	0.0	1	i	6	5	0.7
Cc1ccc(-n2c(O)c(C=Nc3ccc(Br)cn3)c(=O)[nH]c2=O)cc1	-2	?	-21	?	-2.4	-7	i	6	3	-1.1
COc1cccc(C2(O)CCN(Cc3ccncc3)CC2)c1	-2	?	1	-5	-0.6	-13	.	21	19	0.0
COC(=O)c1ccccc1NC(=O)N1C[C@@H]2C[C@@H](C1)c1cccc(=O)n1C2	1	?	3	-5	-0.1	2	i	.	.	.
COc1ccc(C(=O)N2C[C@H]3C[C@@H](C2)c2cccc(=O)n2C3)cc1OC	.	7.2	3	-4	-28	-10	i	.	.	.
Cc1ccc2c(c1)=C/C(=C\c1c(O)[nH]c(=O)[nH]c1=O)C(=O)N=2	22	-15	-10	9	-3.5	-2	i	5	15	-2.0
COC(=O)C1=C(c2ccc(Cl)c(C(F)(F)F)c2)C[C@@H]2CC[C@H]1N2C(=O)NC1CC1	-18	.	.	.	-1.6	0	i	0	1	-7.6
Cc1ccc(-c2cc(-c3ccc(C)cc3)[n+](-c3ccc(C(=O)[O-])cc3)c(-c3ccc(C)cc3)c2)cc1	.	1.7	41	38	26*	98*	i	-21*	-2.5*	-7.6*
C[N+]12CCC(CC1)C(C#N)(N1CCOCC1)C2 (configuration not stated)	-4	-1.0	-5	-1	.	-2	.	.	.	.
Cn1c(O)c(/C=N/N2CCOCC2)c(=O)n(C)c1=S	7	3.7	-10	6	-0.5	-7	i	17	8	-0.4
CCCCCCC(C)(C)c1ccc([C@@H]2C[C@H](O)CC[C@H]2CCCO)c(O)c1	7	.	.	.	0.2	6	i	.	.	.
CCOC(=O)CNC(=O)CSP(=S)(OCC)OCC	-12	-0.4	-14	-2	.	-7	.	.	.	.
CCCCc1ccc2[nH]cc(CCN)c2c1	-1	3.2	30	-5	?	.	i	1	-11	-6.6
Nc1c(C(=O)NCCc2ccccc2)c2nc3ccccc3nc2n1CCN1CCOCC1	-10	78*	33	2	.	.	.	.	.	.
CC(C)(C)C(O)C(Oc1ccc(Cl)cc1)n1cncn1 (configuration not stated)	-2	-0.5	60*	.	-16	.	i	-2	-8	-2.8
COc1ccccc1CCNC1CCCCCC1	.	-0.3	-14	-12	-1.1	-2	i	22	11	1.1
CC(C)NC(C)Cc1ccc(I)cc1 (configuration not stated)	1	.	.	.	-1.5	-14	i	.	.	.
O=P(O)(Oc1ccccc1)OC(c1ccccc1)C(F)(F)F (configuration not stated)	3	0.0	0	18	-1.1	-1	i	3	2	-2.9
CCc1n[nH]c(CCN)n1	-1	2.6	-3	-3	-1.4	1	i	1	2	2.8
CN1CC(C(=O)c2ccc(Cl)cc2)C(c2ccc(Cl)cc2Cl)C1 (configuration not stated)	0	-0.5	13	18	7.2	-2	i	-53	-81	-15
COC(=O)c1ccc(NC(=O)NC(=O)Oc2ccccc2)cc1	.	.	.	.	-1.9	-9	i	-4	-5	1.3
COc1cc2c(cc1OC)C1[C@H]3C(=CC[C@H]1OC2O)CCN3C (some centres not stated)	-11	.	.	.	-13	0	i	6	-2	-3.8
Cc1ccccc1NC(=O)Cc1nc(COC(=O)Cc2ccccc2)cs1	-2	.	.	.	-4.1	-6	i	-9	-3	12
CN(C)c1ccc(C(=O)N/N=C/C23CC[C@@H](O)CC2(O)CC[C@@H]2[C@@H]3CCC3(C)C(C4=CC(=O)OC4)CCC23O)cc1 (some centres not stated)	-1	2.5	-2	1	-3.7	-7	.	14	-4	-4.7
CC1=C[C@@H]2c3cccc4[nH]cc(c34)C[C@H]2N(C)C1	-6	-21	-2	-4	6.9	4	i	10	7	10
Cc1ccccc1NC1(C#N)CCCCC1	-28	-3.5	-5	10	-0.3	3	i	20	12	0.7
c1ccc(-c2nnc(C3CC(c4cccnc4)=NO3)o2)cc1 (configuration not stated)	.	-2.9	-16	-11	-21	1	i	8	14	20
CC(C#N)CCC#N (configuration not stated)	-12	.	.	.	.	-2	i	4	6	0.2
Cc1ccc2c(c1)cc1c(=O)n(CC(=O)N3CCC4(CC3)OCCO4)nc(C)n12	-12	1.3	-10	1	-1.3	-3	i	-1	1	-1.7
N#Cc1c(Cl)nc(Cl)c2c1CCN(Cc1ccccc1)C2	-15	-0.2	0	25	.	0	.	.	.	.
CCCCn1c(O)c(/C=N/N2CCOCC2)c(=O)[nH]c1=S	.	-4.4	4	5	-6.7	-9	i	6	-3	7.1
COC(=O)C1=C(c2ccc(C(C)=O)cc2)C[C@@H]2CC[C@H]1N2C(=O)NCCOc1ccccc1Cl	0	.	.	.	2.6	-4	i	-20	-15	-9.0
Cn1c(O)c(C(=N)COc2ccccc2)c(=O)n(C)c1=O	0	?	-4	-14	.	7	.	.	.	.
CC(C)C(=O)Nc1ccc(N2CCN(C)CC2)c(F)c1	-1	-2.3	2	4	.	4	.	.	.	.
Cc1cccc(NC2=NCCCS2)c1	-9	-5.6	10	-3	0.2	-1	i	3	-9	-3.0
O=c1[nH]c(=O)n(C2CCCCCC2)c(O)c1C=NCc1cccnc1	1	-0.8	-24	5	0.3	.	i	8	13	0.6
O=C(Nc1ccc(Cl)cc1)OC1CN2CCC1CC2 (configuration not stated)	-7	7.5	15	3	-1.2	-10	i	.	.	.
O=c1[nH]c(=S)n(Cc2ccc(F)cc2)c(O)c1C=NCCCn1ccnc1	-9	-1.4	-25	-8	4.3	6	i	1	2	18

Some of the entries so far, with two lines to a compound:
Every second line gives: ALR inh, RanGTP-Impb inh, T cruzi repl, Calb FLC, AF4-AF9 inh, Beta cell apopt, FGF22 binding, Ecoli rRNA inh, Ecoli rRNA inh OD600, Ecoli rRNA inh RFP
> Cc1ccc2c(c1)cc1c(=O)n(CC(=O)N3CCC4(CC3)OCCO4)nc(C)n12
  -12, 1.3, -10, 1, -1.3, -3, i, -1, 1, -1.7
> N#Cc1c(Cl)nc(Cl)c2c1CCN(Cc1ccccc1)C2
  -15, -0.2, 0, 25, ., 0, ., ., ., .
> CCCCn1c(O)c(/C=N/N2CCOCC2)c(=O)[nH]c1=S
  ., -4.4, 4, 5, -6.7, -9, i, 6, -3, 7.1
> COC(=O)C1=C(c2ccc(C(C)=O)cc2)C[C@@H]2CC[C@H]1N2C(=O)NCCOc1ccccc1Cl
  0, ., ., ., 2.6, -4, i, -20, -15, -9.0
> Cn1c(O)c(C(=N)COc2ccccc2)c(=O)n(C)c1=O
  0, ?, -4, -14, ., 7, ., ., ., .
> CC(C)C(=O)Nc1ccc(N2CCN(C)CC2)c(F)c1
  -1, -2.3, 2, 4, ., 4, ., ., ., .
> Cc1cccc(NC2=NCCCS2)c1
  -9, -5.6, 10, -3, 0.2, -1, i, 3, -9, -3.0
> O=c1[nH]c(=O)n(C2CCCCCC2)c(O)c1C=NCc1cccnc1
  1, -0.8, -24, 5, 0.3, ., i, 8, 13, 0.6
> O=C(Nc1ccc(Cl)cc1)OC1CN2CCC1CC2 (configuration not stated)
  -7, 7.5, 15, 3, -1.2, -10, i, ., ., .
> O=c1[nH]c(=S)n(Cc2ccc(F)cc2)c(O)c1C=NCCCn1ccnc1
  -9, -1.4, -25, -8, 4.3, 6, i, 1, 2, 18

Screening data from PubChem.

A portion of the library, so the mix of outcomes need not match the whole.
